Screening results from PubChem BioAssay.
gsp antag – antagonizes gsp, the McCune-Albright syndrome mutation. gsp-mutant cells, cAMP HTRF, 30 min; control for the full effect not named in the record. Potency, µM (top dose mostly 76.9 µM), without a hit: at the top dose activity change, negative = inhibition, most hits filed as inhibitors. hit rate 0.4% among 340,000. AID 624288; active = falling curve of any shape with a large fitted effect; inconclusive = falling curve, mostly with a smaller effect; inactive = flat or rising curve; cell line not stated here;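 also: intracellular cAMP measured with PDE inhibitor Ro 20-1724 present during compound exposure; potency is read from the fitted curve at half-maximal effect; % is scaled to controls: 0 for no effect and ±100 for the full control effect; nearly all actives have a fitted effect of over 65% in size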
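G418-selected cells were plated in DMEM/10% FBS for 16-24 h at 37C, then treated with compounds plus the PDE inhibitor […] (300 uM solution added) for 30 min at 37C. Intracellular cAMP was measured by HTRF after 30 min lysis at room temperature.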
TRPML1 blocker – inhibitors of human TRPML1 channel; Q9GZU1; TRPML1-inducible cells, Ca2+ dye fluorescence, FDSS; hits give low values; inhibition of EC80 agonist-evoked calcium signal; activity change, negative = inhibition, % (test concentration not listed); hit rate 0.02% among 390,000; AID 624415; in the data active means activity change below about -50%; inconclusive means about -30% to -50%; inactive means above about -30%;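 also: stimulus is agonist 54-4 at its EC80 concentration; % is scaled to controls: 0 for no effect and ±100 for the full control effect; compound concentration not given in the record; the text of the record puts the active cut at -80%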
Target sequence (Q9GZU1 whole entry, looked up): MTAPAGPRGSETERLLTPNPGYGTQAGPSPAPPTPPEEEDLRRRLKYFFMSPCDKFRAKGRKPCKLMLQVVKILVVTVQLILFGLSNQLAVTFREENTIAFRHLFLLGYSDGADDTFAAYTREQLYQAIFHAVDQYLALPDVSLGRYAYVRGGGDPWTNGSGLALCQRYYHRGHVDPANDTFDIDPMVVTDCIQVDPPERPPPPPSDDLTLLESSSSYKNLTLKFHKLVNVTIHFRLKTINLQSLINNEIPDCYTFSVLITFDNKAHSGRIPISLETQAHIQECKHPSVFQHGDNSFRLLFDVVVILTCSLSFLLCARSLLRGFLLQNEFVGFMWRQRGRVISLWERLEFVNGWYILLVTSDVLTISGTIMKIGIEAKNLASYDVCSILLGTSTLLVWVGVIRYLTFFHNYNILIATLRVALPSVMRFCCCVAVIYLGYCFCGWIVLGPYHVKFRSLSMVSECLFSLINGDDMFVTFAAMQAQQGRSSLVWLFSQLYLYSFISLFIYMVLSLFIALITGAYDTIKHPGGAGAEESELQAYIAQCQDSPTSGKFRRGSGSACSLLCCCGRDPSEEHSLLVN
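Calcium fluorescence in TRPML1-DL cells induced overnight with Tet: a 110 s read after compound pin addition, then a 110 s antagonist read after challenge with 54-4 at 4 uM final (EC80).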
Menin MLL FP FL – inhibitors of human menin-MLL interaction, wild-type MLL peptide; Fluorescence polarization, fluorescein-MLL peptide displacement from menin; FP activity change, % at 61.4 µM; 290,000 tested, under 10 active; AID 1766; inconclusive = falling polarisation curve, or a change in total fluorescence; inactive = total fluorescence flat and polarisation flat or rising; no compound was filed as active; the % refers to the polarisation; negative = inhibition;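 also: % of control where 0% means no effect; inhibitors lower the polarisation; unlabelled MLL peptide was the positive control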
ClpP mod – qHTS Assay for Activators of ClpP. ATP-dependent Clp protease proteolytic subunit (Bacillus subtilis (strain 168)), P80244. purified B. subtilis ClpP, FRET peptide cleavage, 20 min. Potency, µM (highest dose often 57.5 µM), inactives show at the highest dose activity change, negative = active. hit rate 1.9% among 340,000; active = well fitted falling curve with a large enough effect; inconclusive = small, poorly fitted or top-dose-only effect; inactive = no such curve, though single readings can be large or run the other way; also: potency is read from the fitted curve at half-maximal effect; the source files actives as falling curves though it sought activators and does not explain the sign; nearly all actives have a fitted effect of over 65% in size; many hits overshoot -100%
Target sequence (P80244 whole entry, looked up): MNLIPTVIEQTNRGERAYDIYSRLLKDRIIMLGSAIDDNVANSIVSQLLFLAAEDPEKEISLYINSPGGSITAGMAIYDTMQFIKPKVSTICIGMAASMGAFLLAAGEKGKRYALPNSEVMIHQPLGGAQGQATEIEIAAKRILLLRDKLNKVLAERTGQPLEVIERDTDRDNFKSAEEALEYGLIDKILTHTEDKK
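FRET quenching reversal measured ClpP activation: 10 microg/mL B. subtilis ClpP at pH 8 with the FRET-FV decapeptide, read at 430 nm after 320 nm excitation. The 20-min minus 0-min signal was scaled between DMSO/no-enzyme wells and ADEP (5.8 microM final).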
TRPML1 ag – activates the human TRPML1 channel; TRPML1-expressing cells, Ca2+ dye fluorescence, FDSS; host cell line not named in the record; reference of the full effect not given here; activation, % (test concentration not listed); hit rate 0.12% among 410,000; Q9GZU1; in the data active = activation above about 50%; inconclusive = about 30% to 50%; inactive = below about 30%; also: 0% is about no effect; the text of the record puts the active cut at 80%
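Agonist activity was taken from a 110 s kinetic Ca2+ dye read on the FDSS after pinning compounds onto TRPML1-DL cells. The cells were seeded at 1,500/well with Tet inducer, incubated about 16 h, then dye-loaded at room temperature.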
gsp agonist – gsp mutant agonism; gsp mutant cells, cAMP HTRF, 30 min; control for the full effect not named in the record; Potency, µM (top dose mostly 76.9 µM), inactives show at the highest dose activation (cAMP increase), most hits filed as activators; hit rate 0.13% among 340,000; active = well fitted activation curve with a large enough effect; inconclusive = small, poorly fitted or top-dose-only effect, or another doubt; inactive = no such curve, though single readings can be large or run the other way; cell line not stated here;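 also: phosphodiesterase inhibitor Ro 20-1724 added with compounds to block cAMP breakdown; potency is read from the fitted curve at half-maximal effect; nearly all actives have a fitted effect of over 60% in size; about a fifth of the inactives were tested at one dose only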
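Cells in DMEM/10% FBS with G418 were pretreated with compounds in DMSO plus […] (300 uM stock) for 30 min at 37C. cAMP was measured by HTRF (cAMP-d2 plus anti-cAMP antibody-K) after 30 min at room temperature.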
The depositor's hits bear a star; ? = inconclusive; · = not tested or not shown; & = joins results of further samples; [ ] = remark or other dose. Random draw from the library; any-hit rate near 2.1%.

item	Molecule	gsp antag	TRPML1 blocker	Menin MLL FP FL	ClpP mod	TRPML1 ag	gsp agonist
1	COc1cc(NC(=O)c2c3c(nc4ccccc24)CCC3)cc(OC)c1	11%	7	6.0	-0.8%	0.5	0%
2	CCOC(=O)c1c(NC(=O)CC2SC(=NC)N(C)C2=O)sc(C)c1C (stereo not drawn)	-2%	-4	-0.6	1.6%	-1.3	28%
3	Cc1ccc(C(=O)COC(=O)CCS(=O)(=O)c2ccccc2)cc1[N+](=O)[O-]	-4%	-5	·	-1.8%	-0.7	-25%
4	COc1ccccc1C(=O)OCc1cc(=O)n2c(C)csc2n1	·	-12	·	3.9%	-0.2	·
5	CN(C)S(=O)(=O)n1ccnc1	10%	0	0.0	-0.7%	0.0	30%
6	Cc1ccc2sc(N(CCCN(C)C)C(=O)CCS(=O)(=O)c3ccccc3)nc2c1C	20%	1	2.7	0.9%	0.3	?
7	COCCn1nnnc1C(c1cccs1)N1CCN(c2cc(C)ccc2C)CC1 (stereo not drawn)	-9%	-2	3.7	-2.0%	24	-10%
8	CC1CCN(S(=O)(=O)Cc2ccccc2Cl)CC1	-3%	32	2.3	1.4%	-1.0	-52%[inhibitor]
9	COc1ccc(-n2c(=O)c3ccccc3n(CC(=O)NC3CCCC3)c2=O)cc1	-5%	?	3.5	-4.6%	-0.1	7%
10	O=C1c2oc3ccccc3c(=O)c2C(c2ccccc2)N1Cc1ccc2c(c1)OCO2 (stereo not drawn)	·	-5	·	-2.7%	0.3	·
11	Cc1ccc(-c2nnc(Nc3cccc(O)c3)c3ccccc23)cc1S(=O)(=O)N1CCOCC1	·	-10	·	-2.0%	-0.2	·
12	CCCCCc1nc2c(=O)[nH]c3ccccc3c2o1	24%	-10	2.9	-4.4%	-0.1	-8%
13	COC(=O)[C@H](Cc1ccccc1)NS(=O)(=O)N[C@@H](Cc1ccccc1)C(=O)OC	0%	-17	·	-0.3%&1.3%	-0.2&0.0	-6%
14	Cc1ccc(NS(=O)(=O)c2ccc3c(c2)c(=O)n(C)c(=O)n3C)cc1F	-4%	33	1.2	-2.7%	0.9	10%
15	COC(C(=O)Nc1cccc(F)c1)c1ccccc1 (stereo not drawn)	7%	2	3.3	-1.8%	-0.4	-9%
16	Cc1ccccc1Oc1nc2ccccc2n2cnnc12	10%	1	1.3	-6.2%	-0.5	-29%
17	O=C(/C(Cl)=C/Nc1ccc(Br)cn1)C(F)(F)F	7%	2	3.6	-1.1%	0.7	34%
18	C=CCn1c(SCC(=O)C23CC4CC(CC(C4)C2)C3)nc(O)cc1=O	-19%	-7	1.5	-14%	-0.2	0%[15.4 µM]
19	CCOC(=O)N1CCN(c2nc3ccccc3nc2C(C#N)S(=O)(=O)c2ccc(C)cc2)CC1 (stereo not drawn)	-14%	-13	50[activator]	32µM*	0.2	-33%[inhibitor]
20	COc1ccccc1N1CCN(C(=O)C2CCN(S(=O)(=O)c3cn(C)cn3)CC2)CC1	·	-12	·	0.7%	1.2	·
21	COc1cc(NC(=O)CCc2c(C)nc3cc(-c4ccccc4)nn3c2C)cc(OC)c1OC	·	-1	·	0.1%	-0.7	·
22	COC(=O)C(CC(=O)c1ccc(Cl)cc1)c1ccc(C)cc1 (stereo not drawn)	-11%	6	-2.3	?	2.9	-6%
23	FC(F)(F)c1ccnc(N2CCN(Cc3cnc(-c4ccccc4)[nH]3)CC2)c1	-4%	-5	0.8	·	0.4	-5%[15.4 µM]
24	CCN(CC)C(=O)c1ccc2nc3ccccc3nc2c1	4%	20	2.8	-0.4%	-0.3	10%
25	CCOC(=O)CSc1nc2ccccc2n2cnnc12	-3%	2	4.5	-0.4%	0.8	?
26	COC(=O)c1ccc(CSc2nc3ccccc3[nH]2)o1	17%	19	4.8	-1.9%	-0.1	?
27	Cc1ccc(N=CC2=C(O)CC(C)(C)CC2=O)nc1	-2%	14	-3.1	-26%	-0.2	8%
28	COc1ccc(C(=O)NC2CCN(CC(=O)NCc3ccccc3)CC2)cc1	15%	-4	·	·	0.7	-2%[15.4 µM]
29	COc1ccc(C2(CNC(=O)/C=C/c3ccco3)CCCC2)cc1OC	-6%	-10	20	0.3%	-0.2	-27%
30	O=C(c1ccc2oc(CCCc3ccccc3)nc2c1)N1CCCCC1CO (stereo not drawn)	1%	-13	·	0.0%	0.3	-16%
31	O=C(CSc1cn(CC(=O)N2CCOCC2)c2ccccc12)Nc1ccccc1	·	-10	·	1.5%	-0.6	·
32	Cc1ccc(NC(=O)C(Cc2ccccc2)NS(=O)(=O)c2ccc3c(c2)CCC(=O)N3)cc1 (stereo not drawn)	·	4	·	-3.0%	-1.0	·
33	Cc1ccc2nc(N3CCN(C(=O)C4COc5ccccc5O4)CC3)sc2c1 (stereo not drawn)	·	5	·	-1.3%	3.1	·
34	CCN(c1ccccc1)S(=O)(=O)c1ccc(C(=O)NCc2ccco2)cc1	-21%	4	·	0.7%	-0.8	·
35	C/C(=N\NC(=O)c1cccs1)c1ccc2c(c1)OCO2	7%	-14	-0.5	·	-0.1	?
36	CSC1=NCCN1C(=O)c1ccc(S(=O)(=O)N2CCOCC2)cc1	4%	14	1.4	-1.7%	-0.1	-45%[inhibitor]
37	C=CCc1ccc(OCCOCCNCCCC)c(OC)c1	8%	37	-0.7	-3.4%	0.3	-2%
38	COc1ccc(/C=C/C(=O)Nc2nnc(C(C)C)s2)cc1OC	13%	17	-0.3	?	-0.1	3%
39	CC1=NN(C(=O)c2ccncc2)C(=O)C1N=Nc1ccc2ccccc2c1 (stereo not drawn)	-27%	-3	·	1.8%	5.0	?
40	Cc1nc(N2CCc3ccccc3C2)[nH]c(=O)c1CCC(C)C	2%	7	-0.3	-0.4%	-0.4	6%

The listing continues.
Results follow in this order: gsp antag	TRPML1 blocker	Menin MLL FP FL	ClpP mod	TRPML1 ag	gsp agonist
(41) O=C(CN1CCN(C(=O)CCC(=O)N2CCC(c3ccccc3)=N2)CC1)Nc1cccc(F)c1
    ·	-3	·	-11%	-1.1	-71%[inhibitor]
(42) CCCS(=O)(=O)NC(=O)C1(C)CCCN(C(=O)COCc2ccccc2)C1 (stereo not drawn)
    ·	-8	·	-0.5%	0.1	·
(43) CC(C)Oc1cccc(-c2cc(C(=O)NN3CCOCC3)c3ccccc3n2)c1
    -7%	15	·	-3.5%	0.2	15%
(44) CCOC(=O)c1ccc(NC(=S)N(CCCN(CC)CC)Cc2ccco2)cc1
    13%	1	-0.6	-3.2%	1.8	7%[15.4 µM]
(45) O=C(Nc1ccccn1)C1CCN(S(=O)(=O)c2cccs2)CC1
    8%	10	4.2	-1.4%	0.4	-29%
(46) Cn1c(CN2CCN(c3ccccc3NS(C)(=O)=O)CC2)nc2ccccc21
    -5%	-16	1.3	0.0%	0.5	-75%[inhibitor]
(47) COc1ccc(-c2cn(CC3CCCCC3)nn2)cc1
    6%	-8	-3.6	0.7%&1.4%	-0.3&-0.8	·
(48) O=C(Cc1ccc(Br)cc1)N/N=C/c1cccnc1
    4%	33	·	0.6%	0.1	12%
(49) O=C1C=C(c2ccccc2)C[C@H](c2cccs2)[C@H]1n1cnc([N+](=O)[O-])c1
    -3%	12	1.6	-0.9%	1.7	0%
(50) O=C(CCNc1n[nH]c(=O)[nH]c1=O)N1CCOCC1
    13%	13	-0.8	0.3%	-1.3	9%
(51) CC(C)(C)C(=O)Nc1sc2c(c1C#N)CCCCC2
    3%	-13	-1.2	4.4%	0.0	-48%[inhibitor]
(52) CCOC(=O)N1CCC(N2C(=O)c3ccc(C(=O)Nc4cccc(OC)c4)cc3C2=O)CC1
    -11%	-3	·	1.6%	0.6	?
(53) O=c1[nH]c2ccc(NCc3ccccc3OCc3ccc(Cl)cc3)cc2[nH]1
    -18%	3	7.2	14%	0.8	1%
(54) COc1ccccc1NC(=O)N(Cc1ccccc1)c1ccccn1
    -20%	40	0.5	-2.8%	1.1	-40%[inhibitor]
(55) COc1ccc(C(=O)NNC(=O)c2ccc3ccccc3c2O)cc1
    -12%	-27	-0.3	-3.2%	0.9	15%
(56) CCC(CO)Oc1cc(NC(=O)c2ccc(C)cc2)c2ncn(C(C)C)c2c1 (stereo not drawn)
    -17%	5	·	0.2%	-0.1	-4%
(57) CC(=O)Nc1ccc(N2C(=O)CSC2c2ccc(F)cc2)cc1 (stereo not drawn)
    -2%	-5	1.2	1.3%	1.5	-29%
(58) COc1ccc(NC(=O)CNc2cccc(S(=O)(=O)N3CCCCCC3)c2)c([N+](=O)[O-])c1
    -17%	42	·	-1.7%	0.8	17%
(59) OC(COCc1ccc(Cl)cc1)CN1CCN(c2ccccn2)CC1 (stereo not drawn)
    13%	23	2.7	-3.8%	0.2	3%
(60) Cc1[nH]n(-c2ccccc2)c(=O)c1/C=N/N(c1ccccc1)c1ccccc1
    -15%	-2	-1.0	·	0.6	-10%[15.4 µM]
(61) CC(=O)Oc1ccc(CCC(C)OC(C)=O)cc1 (stereo not drawn)
    13%	-17	-2.0	1.1%	0.4	-8%
(62) CCc1cccc(C)c1NC(=O)COC(=O)c1c2c(nc3ccccc13)/C(=C\c1cccs1)CCC2
    ?	3	15	-4.6%	0.0	-3%
(63) O=C(CSc1oc(-c2ccccc2)nc1S(=O)(=O)c1ccc(Cl)cc1)NC1CCCCC1
    ·	5	·	-2.8%	-0.6	·
(64) CCCOc1ccccc1/C=C1\SC(N2CCCCC2)=NC1=O
    -25%	49	-2.6	·	2.1	-17%
(65) CCOc1ccc(C(=O)Nc2cc(C)ccn2)cc1
    ·	3	-2.6	·	-0.4	-3%[15.4 µM]
(66) CCOC(=O)CC1Sc2ccccc2NC1=O (stereo not drawn)
    10%	-14	0.9	-0.1%	0.4	33%

Full records, looked up by structure. Values in the order: gsp antag	TRPML1 blocker	Menin MLL FP FL	ClpP mod	TRPML1 ag	gsp agonist
Profile of CC1=NN(C(=O)c2ccncc2)C(=O)C1N=Nc1ccc2ccccc2c1 (stereo not drawn) = -27%	-3	·	1.8%	5.0	?
Profile of CCOC(=O)N1CCN(c2nc3ccccc3nc2C(C#N)S(=O)(=O)c2ccc(C)cc2)CC1 (stereo not drawn) = -14%	-13	50[activator]	32µM*	0.2	-33%[inhibitor]

Copied from the list:
cpd 50 @ ClpP mod = 0.3%
cpd 47 @ gsp antag = 6%
